HNF4A DNA FP: change in binding of human HNF4 alpha to DNA | AID 1224865 | actives 0.3% (n = 360,000) | HNF4a-FITC DNA binding, fluorescence polarization, 1 h | P41235 | activity change, % at 10 µM; in the data active = activity change above about 30%, passing the limit was not always enough;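 note: controls were the assay level and a saturating level of protein; the project sought stronger binding though the title names inhibitors; some compounds called inactive have numbers as strong as hits; positive values seem to mean higher polarization but the record does not say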
FGF22 binding: FGF22 (human) thermal shift binding; Q9HCT0; recombinant FGF22 thermal shift, SYPRO orange fluorescence; percent of sucrose octasulfate shift, DMSO zero; calls only at 9.99 µM; actives 1.5% (n = 340,000);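 active = melting point raised past a set limit in the mean and every replicate; inconclusive = no clear call; three in four hits are not shown here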
Target sequence (Q9HCT0 whole entry, looked up): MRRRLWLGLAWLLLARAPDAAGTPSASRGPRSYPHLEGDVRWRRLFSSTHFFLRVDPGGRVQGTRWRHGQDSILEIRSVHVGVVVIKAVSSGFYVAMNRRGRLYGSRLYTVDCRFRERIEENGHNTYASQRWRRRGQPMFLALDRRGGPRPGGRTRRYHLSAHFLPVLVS
UCH37 DUB inh: inhibitors of human deubiquitinating enzyme UCH37; Q9Y5K5; purified proteasome/UCH37, Ub-AMC cleavage fluorescence; inhibition, % (no concentration beside the values); actives 0.33% (n = 330,000);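 active = mean of two replicates above 20%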;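 note: 0% = compound-free wells with enzyme and 100% = wells lacking proteasome; stock transfer was 100 nL into about 20 µL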
Target sequence (Q9Y5K5 whole entry, looked up): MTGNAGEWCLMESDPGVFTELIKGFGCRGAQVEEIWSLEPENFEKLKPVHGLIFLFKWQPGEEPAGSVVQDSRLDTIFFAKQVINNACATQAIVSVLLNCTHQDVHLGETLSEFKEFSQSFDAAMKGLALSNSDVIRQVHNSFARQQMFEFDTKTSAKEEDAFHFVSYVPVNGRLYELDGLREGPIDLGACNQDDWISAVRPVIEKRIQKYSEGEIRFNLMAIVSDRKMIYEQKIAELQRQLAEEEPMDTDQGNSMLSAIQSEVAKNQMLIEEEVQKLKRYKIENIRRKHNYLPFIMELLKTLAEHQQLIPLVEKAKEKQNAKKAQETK
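Reagent: Ub-AMC substrate; assay system: Proteasome-associated human UCH37 deubiquitinase; controls: no-proteasome and no-compound wells; read-out: % inhibition of Ub-AMC cleavage fluorescence; timing: 30 min preincubation with enzyme, 25 min cleavage at room temperature; signal: AMC fluorescence from Ub-AMC cleavage, excitation 355 nm, emission 460 nm; buffer or medium: Tris-HCl pH 7.4 plus ovalbumin, ATP-MgCl2, DTT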
RanGTP-Imp inh: disruptors of Ran-importin-beta complex formation – biochemical, FRET, CFP-Ran, YFP-importin-beta, homogeneous, primary screen. cell-free CFP-Ran/YFP-importin-beta FRET ratio. inhibition, % (no concentration beside the values). actives 1.1% (n = 300,000);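 active = most replicates above 15%; inconclusive = exactly half above 15%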;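 note: 0% = DMSO wells and 100% = Ran loaded with GDP instead of GTP; wells of about 40 µL received 100 nL stock; the first replicate is given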
Vif A3G: HIV-1 Vif–A3G interaction blockers – biochemical, TR-FRET, GST-Vif 1-94, biotin-A3G peptide, dose response retest, primary screen (AID 1117319) | actives 0.57% (n = 260,000) | TR-FRET GST-Vif / biotin-A3G peptide binding; higher % means a stronger effect; test concentration not given here; strong numbers were not always called active | inhibition, %; hits with a dose series show IC50 in µM;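 active = above the screen mean plus three standard deviations and confirmed in dose response; inconclusive = results disagree or hit not tested in dose response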;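 note: Vif residues 1-94 fused to GST binding biotinylated APOBEC3G peptide 110-148; 0% = full assay without inhibitor and 100% = GST in place of GST-Vif; retest series ran down from 100 µM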
AF4-AF9 inh: blocks AF4 peptide binding to human AF9; P42568; AlphaScreen, biotin-AF4 peptide binding to FLAG-AF9; inhibition, % at 10 µM; actives 0.47% (n = 350,000); AID 651704;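 active = every replicate reaching a set inhibition limit, whatever the replicate mean, cut at about 25% in these data; inconclusive = mean inhibition reaches that limit but some replicates miss it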;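 note: 0% = plate neutral control median and 100% = total signal loss; the record names both 10 and 1 µM as test concentration; the first replicate is given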
Target sequence (P42568 whole entry, looked up): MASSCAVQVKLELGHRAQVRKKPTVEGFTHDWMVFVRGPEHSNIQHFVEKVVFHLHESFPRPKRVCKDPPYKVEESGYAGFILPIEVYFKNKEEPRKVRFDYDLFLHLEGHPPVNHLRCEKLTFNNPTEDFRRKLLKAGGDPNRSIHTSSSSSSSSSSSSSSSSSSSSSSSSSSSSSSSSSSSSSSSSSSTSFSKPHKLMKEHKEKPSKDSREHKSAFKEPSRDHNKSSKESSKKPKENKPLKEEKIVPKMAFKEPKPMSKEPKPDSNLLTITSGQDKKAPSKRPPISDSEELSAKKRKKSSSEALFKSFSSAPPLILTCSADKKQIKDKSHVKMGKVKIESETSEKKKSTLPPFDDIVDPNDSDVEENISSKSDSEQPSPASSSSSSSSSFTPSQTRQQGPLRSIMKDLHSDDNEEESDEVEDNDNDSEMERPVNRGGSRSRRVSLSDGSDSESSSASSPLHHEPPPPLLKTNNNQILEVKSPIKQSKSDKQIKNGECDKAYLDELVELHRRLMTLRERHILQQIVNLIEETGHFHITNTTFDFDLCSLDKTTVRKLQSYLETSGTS
E coli growth: blocks Escherichia coli growth; OD600, 23 h; active compounds read low; OD600 absorbance (test concentration not listed); actives 0.21% (n = 330,000); AID 1053175;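 active = OD600 absorbance below the run mean of sample wells minus 3.6 SD, in any replicate, cut at about 0.56 in these data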;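 note: stock transfer was 300 nL into about 60 µL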
The depositor's hits bear a star; & = joins results of further samples.

The opening 2 compounds, ahead of the listing:
Screening NC(=O)c1ccsc1NC(=O)c1ccc2c(c1)CCCC2 returned HNF4A DNA FP 2.3, FGF22 binding inactive, UCH37 DUB inh -17, RanGTP-Imp inh 0.5, Vif A3G -57%, AF4-AF9 inh -2.2 and E coli growth 0.73.
Screening CCN(CC)C(=O)C1CCCN(C(=S)Nc2cccc3ccccc23)C1 (stereo not drawn) returned HNF4A DNA FP 1.2, UCH37 DUB inh 5.8, RanGTP-Imp inh 2.1 and E coli growth 0.7.

All compounds of this part, from the first entry:
Screening NC(=O)c1ccsc1NC(=O)c1ccc2c(c1)CCCC2 returned HNF4A DNA FP 2.3, FGF22 binding inactive, UCH37 DUB inh -17, RanGTP-Imp inh 0.5, Vif A3G -57%, AF4-AF9 inh -2.2 and E coli growth 0.73.
Screening CCN(CC)C(=O)C1CCCN(C(=S)Nc2cccc3ccccc23)C1 (stereo not drawn) returned HNF4A DNA FP 1.2, UCH37 DUB inh 5.8, RanGTP-Imp inh 2.1 and E coli growth 0.7.
Cc1ccnc2nc(C(=O)OCC(=O)Nc3ccc4c(c3)OC(F)(F)O4)nn12 was read as HNF4A DNA FP 4.3, UCH37 DUB inh -1.4, RanGTP-Imp inh -2.2, Vif A3G 7% and E coli growth 0.68.
Cc1cc(C(=O)CSc2nnc(-c3ccccc3)n2C)c(C)n1C was read as HNF4A DNA FP -2.5, UCH37 DUB inh 5.9, RanGTP-Imp inh -1.5, Vif A3G 16% and E coli growth 0.73.
`CN(C)CC#Cc1cncc(C(=O)NNC(=O)Nc2ccc(Cl)cc2)c1` gave HNF4A DNA FP -1.9, FGF22 binding inactive, UCH37 DUB inh 4.1, RanGTP-Imp inh -1.3, Vif A3G 29%, AF4-AF9 inh 4.8 and E coli growth 0.71.
`CCOc1ccc(N(CC(=O)N2CCCCC2)S(=O)(=O)c2ccc(Cl)cc2)cc1` gave HNF4A DNA FP -0.1, FGF22 binding inactive, UCH37 DUB inh 1.9, RanGTP-Imp inh -3.2, AF4-AF9 inh 6.4 and E coli growth 0.7.
`CCCN(CCC)C(=O)c1cc([N+](=O)[O-])cc2c1-c1ccc([N+](=O)[O-])cc1C2=C(C#N)C#N` gave FGF22 binding inactive, UCH37 DUB inh 15, RanGTP-Imp inh inconclusive, Vif A3G 22%, AF4-AF9 inh 7.5 and E coli growth 0.68.
CCOC(=O)c1[nH]c2c(c1C)C(=O)CC(c1ccc(N(C)C)cc1)C2 (stereo not drawn) was read as HNF4A DNA FP 0.2, UCH37 DUB inh 1.1, RanGTP-Imp inh -3.5, Vif A3G 7%, AF4-AF9 inh 4.8 and E coli growth 0.79.
COCCCN1C(=O)C(=O)/C(=C(/O)c2ccc(S(=O)(=O)N3CCCCC3)cc2)C1c1ccc(O)c(OC)c1 (stereo not drawn) was read as HNF4A DNA FP -1.1, FGF22 binding inactive, UCH37 DUB inh 7.1, RanGTP-Imp inh 1.4, AF4-AF9 inh -1.1 and E coli growth 0.7.
`COc1ccc(CCNC(=O)c2c(C)nn(-c3ccccc3)c2Cl)cc1OC` gave HNF4A DNA FP 1.1, FGF22 binding inactive, UCH37 DUB inh 4.4, RanGTP-Imp inh -0.4, AF4-AF9 inh 2.4 and E coli growth 0.66.
`Cc1cc(NC(=O)CS(=O)(=O)c2cn(Cc3cccc(F)c3)c3ccccc23)no1` gave HNF4A DNA FP -0.7, UCH37 DUB inh 5.7, RanGTP-Imp inh -0.9, Vif A3G 3% and E coli growth 0.7.
For C[C@H]1CN([C@@H](C)CO)C(=O)CCCn2nncc2CO[C@@H]1CN(C)S(=O)(=O)c1cccc(C#N)c1 the results were HNF4A DNA FP -1.0, FGF22 binding inactive and AF4-AF9 inh -0.8&0.1.
For COc1ccc(Cl)cc1NCC(=O)Nc1ccc(OC)c(S(=O)(=O)N2CCCCC2)c1 the results were HNF4A DNA FP 1.1, FGF22 binding inactive, UCH37 DUB inh 2.4, Vif A3G -7%, AF4-AF9 inh -2.8 and E coli growth 0.71.
`O=C(OCCOCCN=C1NS(=O)(=O)c2ccccc21)c1ccncc1` gave HNF4A DNA FP 2.6, UCH37 DUB inh 1.6, RanGTP-Imp inh -1.4, Vif A3G -7% and E coli growth 0.71.
For OC1CCC(NC(=S)Nc2ccc(SC(F)F)cc2)CC1 (stereo not drawn) the results were HNF4A DNA FP -4.0, FGF22 binding inactive, UCH37 DUB inh 2.1, RanGTP-Imp inh -3.1, Vif A3G -1%, AF4-AF9 inh 1.0 and E coli growth 0.68.
For Cc1csc(C(=O)O)c1NC(=O)c1cccc([N+](=O)[O-])c1 the results were HNF4A DNA FP -1.9, FGF22 binding inactive, UCH37 DUB inh 3.0, RanGTP-Imp inh 2.0, Vif A3G -4%, AF4-AF9 inh -1.5 and E coli growth 0.71.
Screening Cc1cccc(NC(=O)CSc2nnc([C@@H]3CCCN3C(=O)OC(C)(C)C)o2)c1C returned HNF4A DNA FP -0.4, UCH37 DUB inh 4.7, RanGTP-Imp inh 27, Vif A3G 1% and E coli growth 0.75.
`CCC(c1ccccc1)c1nc(-c2ccccn2)no1` (stereo not drawn) gave HNF4A DNA FP -2.4, UCH37 DUB inh 1.0, RanGTP-Imp inh inconclusive, Vif A3G inconclusive and E coli growth 0.65.
Screening CN(C)C(=O)C1(c2ccccc2)CCN(S(=O)(=O)c2ccccc2)CC1 returned HNF4A DNA FP -1.9, UCH37 DUB inh -0.1, RanGTP-Imp inh 2.8, Vif A3G 15% and E coli growth 0.71.
Screening NS(=O)(=O)c1ccc(CNS(=O)(=O)c2cc(C(=O)O)ccc2Cl)cc1 returned HNF4A DNA FP -11, FGF22 binding inactive, UCH37 DUB inh 1.2, RanGTP-Imp inh -4.5, AF4-AF9 inh -0.6 and E coli growth 0.68.
`N#Cc1ccc(/C=C(\C(=O)C(=O)O)c2ccc3ccccc3n2)cc1` gave HNF4A DNA FP 6.0, FGF22 binding inactive, UCH37 DUB inh -45, RanGTP-Imp inh 20*, Vif A3G 26%, AF4-AF9 inh 7.4 and E coli growth 0.69.
`CN(CC(=O)Nc1cccc(F)c1)CC(=O)Nc1cccc(S(=O)(=O)N2CCCCCC2)c1` gave HNF4A DNA FP 0.1, FGF22 binding inactive, UCH37 DUB inh 4.7, RanGTP-Imp inh 2.1, Vif A3G -4%, AF4-AF9 inh 5.0 and E coli growth 0.65.
`COc1ccc(Cc2nnc(SCC(=O)NCCc3ccccc3)o2)cc1` gave HNF4A DNA FP -1.4, UCH37 DUB inh 0.0, RanGTP-Imp inh inconclusive, Vif A3G 1% and E coli growth 0.68.
`CC(=O)Nc1cc(C)c(S(C)(=O)=O)c(C)c1` gave HNF4A DNA FP 2.8, UCH37 DUB inh 3.6, RanGTP-Imp inh -2.7, Vif A3G 2% and E coli growth 0.66.
CCn1cnc2cc(NCc3ccc(C)cc3)ccc21 was read as HNF4A DNA FP -1.9, UCH37 DUB inh -5.2, RanGTP-Imp inh 4.0, Vif A3G 10% and E coli growth 0.64.
Screening Cc1ccc(-c2nnn(CC(=O)N(c3ccccc3F)C(C(=O)NC3CCCC3)c3ccco3)n2)o1 (stereo not drawn) returned HNF4A DNA FP 11, FGF22 binding inactive, UCH37 DUB inh 0.2, RanGTP-Imp inh inconclusive, Vif A3G 9%, AF4-AF9 inh -6.4 and E coli growth 0.65.
`Cc1ccc(F)cc1NC(=O)N1CCNC(=O)C1CC(=O)Nc1cc(Cl)ccc1Cl` (stereo not drawn) gave HNF4A DNA FP -1.9, FGF22 binding inactive, UCH37 DUB inh 4.5, RanGTP-Imp inh -4.2, Vif A3G 1%, AF4-AF9 inh -0.2 and E coli growth 0.69.
CCc1ccc(C(O)c2ncc(-c3ccc(C(F)(F)F)cc3)[nH]2)cc1 (stereo not drawn) was read as HNF4A DNA FP 0.3, FGF22 binding inactive and AF4-AF9 inh 1.3.
`CCCn1c(=O)c(C(=O)NCc2ccncc2)c(O)c2ccccc21` gave HNF4A DNA FP -6.2, UCH37 DUB inh -2.1, RanGTP-Imp inh 0.4, Vif A3G -2% and E coli growth 0.68.
COc1cccc(CC(=O)Nc2nc(-c3ccc(F)c(F)c3)cs2)c1 was read as HNF4A DNA FP 1.9, FGF22 binding inactive, UCH37 DUB inh 5.1, RanGTP-Imp inh -3.8, Vif A3G 3%, AF4-AF9 inh -2.2 and E coli growth 0.72.
CC(C)n1ncc2c(C(=O)N3CCN(Cc4cccs4)CC3)cc(C3CC3)nc21 was read as HNF4A DNA FP -3.9, FGF22 binding inactive, Vif A3G -3% and AF4-AF9 inh 2.3.
For O=C(CN(CCO)c1ccccc1)Nc1ccc(Cl)c(S(=O)(=O)N2CCOCC2)c1 the results were HNF4A DNA FP 2.5, FGF22 binding inactive, UCH37 DUB inh 3.1, RanGTP-Imp inh 0.8, Vif A3G 16%, AF4-AF9 inh 2.1 and E coli growth 0.59.
CN(C)S(=O)(=O)c1ccc(S(=O)(=O)NC2CCOC(C)(C)C2)cc1 (stereo not drawn) was read as HNF4A DNA FP 4.3, UCH37 DUB inh 1.7, RanGTP-Imp inh -4.4, Vif A3G -8% and E coli growth 0.69.
For Cc1n[nH]c(C)c1S(=O)(=O)N1CCC(C(=O)O)CC1 the results were HNF4A DNA FP -1.5, UCH37 DUB inh -3.1, RanGTP-Imp inh 7.2, Vif A3G 0% and E coli growth 0.68.
Screening COC(=O)C1=C(C)NC(C)=C(C(=O)OCC2CCCO2)C1c1ccc(Cl)c([N+](=O)[O-])c1 (stereo not drawn) returned HNF4A DNA FP 2.2, FGF22 binding inactive, RanGTP-Imp inh 4.8, Vif A3G -6% and AF4-AF9 inh 8.4.
For CC(C)c1ccc(S(=O)(=O)NCc2ccc3c(c2)OCO3)cc1 the results were HNF4A DNA FP 5.4, FGF22 binding inactive, UCH37 DUB inh -0.1, RanGTP-Imp inh 1.7, Vif A3G -5%, AF4-AF9 inh -6.8 and E coli growth 0.62.
`O=C(Nc1ncccc1O)c1ccc2c(c1)OCCO2` gave HNF4A DNA FP 2.7, FGF22 binding inactive, UCH37 DUB inh 5.6, RanGTP-Imp inh inconclusive, Vif A3G -1%, AF4-AF9 inh -15 and E coli growth 0.68.
`COc1ccc(C)cc1S(=O)(=O)NCC(c1ccco1)N1CCc2ccccc2C1` (stereo not drawn) gave HNF4A DNA FP -2.1, FGF22 binding inactive, UCH37 DUB inh 0.7, RanGTP-Imp inh -0.8, Vif A3G -3%, AF4-AF9 inh -14 and E coli growth 0.69.
Screening Cc1cc(Cl)ccc1NC(=S)NCCCN1CCCC1=O returned HNF4A DNA FP -5.2, FGF22 binding inactive, UCH37 DUB inh 0.8, Vif A3G 30%, AF4-AF9 inh -2.4 and E coli growth 0.66.
For C1=C(CCNCC2CC2)CCCC1 the results were HNF4A DNA FP 5.4, FGF22 binding inactive, UCH37 DUB inh 1.2, RanGTP-Imp inh 1.7, Vif A3G 6%, AF4-AF9 inh 0.1 and E coli growth 0.71.
COc1ccc(CNC(=O)[C@]2(C)CCC[C@@]3(C)C4CC[C@@]5(C)C[C@]4(CCC32)CC5=O)cc1 (stereo partly drawn) was read as HNF4A DNA FP 3.2, FGF22 binding inactive, UCH37 DUB inh -0.7, AF4-AF9 inh 3.8 and E coli growth 0.7.
`O=C(Nc1ccc2c(c1)OCCO2)C(c1ccnc2ccccc12)N1CCN(C/C=C/c2ccccc2)CC1` (stereo not drawn) gave HNF4A DNA FP -6.9, FGF22 binding inactive and AF4-AF9 inh 11.
For CCCn1c(SCC(=O)Nc2nc(C)c(C(=O)OC)s2)nnc1C(C)C the results were HNF4A DNA FP -1.6, UCH37 DUB inh 5.1, RanGTP-Imp inh 1.3, Vif A3G -3% and E coli growth 0.67.

These rows are one share of the data; count on the stated rates, not on these rows.
